Assay outcomes deposited in PubChem BioAssay by Fisher Drug Discovery Resource Center.
NPYLR7 ag – activates Aedes aegypti NPYLR7 receptor; HEK293T NPYLR7/Galpha15, GCaMP6s calcium fluorescence; AID 1259423; activation, % at 10 µM; 270,000 tested, 0.15% active; in the data active means activation above about 40%;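 further: 0% = vehicle and 100% = reference agonist at the receptor; some compounds past the cut are filed as inactive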
NPYLR7 ag max-min – second read-out of NPYLR7 ag, no call of its own (marks repeat the call); activation, %; measured here: Max-Min RFU normalised activation; some inactives read as strong as hits;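 span of the calcium signal over five minutes; 0% = vehicle and 100% = native peptide agonist; compound fluorescence can raise it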
* = called active by the depositor; & = joins results of further samples. An excerpt (hit frequency here may not be typical).

Screening CN(CCNC(=O)C1(c2cccs2)CC1(C)C)S(C)(=O)=O (stereo not drawn) returned NPYLR7 ag -2 and NPYLR7 ag max-min -4.
Cc1cnc(NCCc2nn[nH]n2)nc1N(C)C was read as NPYLR7 ag 5 and NPYLR7 ag max-min 5.
`O=C(NCc1scnc1-c1ccccc1)C1CCC(=O)N(Cc2ccccn2)C1` (stereo not drawn) gave NPYLR7 ag 2&15 and NPYLR7 ag max-min -1&5.
`O=C(c1cn(Cc2cccc(C(F)(F)F)c2)nn1)N1CCCCCC1` gave NPYLR7 ag 25 and NPYLR7 ag max-min 16.
For CC(C)COc1nc(-c2ccc(C(F)(F)F)cc2)n(-c2ccc(NC(=O)CCc3ccccc3)cc2)n1 the results were NPYLR7 ag 21 and NPYLR7 ag max-min 20.
CC1C(c2cccs2)=[N+]([O-])C(C)(c2ccc(Cl)cc2)N1O (stereo not drawn) was read as NPYLR7 ag -24 and NPYLR7 ag max-min -34.
`CCOC(=O)C1=C(C)NC(C)=C(C(=O)OCC)C1c1ccc(OCC)cc1` gave NPYLR7 ag 5 and NPYLR7 ag max-min 4.
`COc1cccc(-c2cnc(-c3cccc(CNC(=O)C4=Cc5cc(Cl)ccc5OC4)c3)[nH]2)c1` gave NPYLR7 ag 22 and NPYLR7 ag max-min 25.
COC(=O)c1nc(S(C)(=O)=O)ncc1Cl was read as NPYLR7 ag -1 and NPYLR7 ag max-min -4.
`O=C1NN(c2ccccc2)C(=O)/C1=C1/C(=O)N(Cc2cccc3ccccc23)c2ccccc21` gave NPYLR7 ag -1 and NPYLR7 ag max-min -3.
`Cc1ccc(C=CC(=O)N2CCC(C(=O)Nc3ccc4c(c3)OCO4)CC2)c(Br)c1` gave NPYLR7 ag -7 and NPYLR7 ag max-min -9.
For O=C(c1cn2cccnc2n1)N1C[C@@H]2C3CCC(CC3)[C@@H]2C1 the results were NPYLR7 ag 19 and NPYLR7 ag max-min 10.
For COc1ccccc1N1CCN(c2ccc(NC(=O)c3ccccc3C)cc2C(=O)NCC(C)C)CC1 the results were NPYLR7 ag -1 and NPYLR7 ag max-min 2.
Screening Cc1nc2sccn2c1CN1CCCC(Cn2ccnc2)C1 (stereo not drawn) returned NPYLR7 ag 0 and NPYLR7 ag max-min -11.
Screening Cc1nc(-c2ccc(CNc3cc(=O)n4ccccc4n3)s2)cs1 returned NPYLR7 ag 1 and NPYLR7 ag max-min 1.
For C=CCN(CC(=O)N(CCc1ccc(OC)c(OC)c1)Cc1sccc1C)C(=O)c1cc(C(F)(F)F)cc(C(F)(F)F)c1 the results were NPYLR7 ag 14 and NPYLR7 ag max-min 10.
For Cc1noc2nc(C3CC3)cc(C(=O)NC(C)c3cc4ccccc4o3)c12 (stereo not drawn) the results were NPYLR7 ag 1 and NPYLR7 ag max-min 0.
For CN(CCNS(=O)(=O)c1ccc(N2CCOC2=O)cc1)C1CC1 the results were NPYLR7 ag 10 and NPYLR7 ag max-min 7.
CCC1CCCCN1Cc1nnc(CC2CCNCC2)n1C (stereo not drawn) was read as NPYLR7 ag 19 and NPYLR7 ag max-min 20.
`O=c1c2cc3c(=O)n(C4CCCCC4)ccc3nc2ccn1CCO` gave NPYLR7 ag 3 and NPYLR7 ag max-min 8.
For Cc1ccc2oc(-c3cccc(NC(=O)c4ccco4)c3C)nc2c1 the results were NPYLR7 ag 10 and NPYLR7 ag max-min 12.
For O=C(C1CSCN1C(=O)CCC1CCCCC1)N1CCCC1 (stereo not drawn) the results were NPYLR7 ag -4 and NPYLR7 ag max-min 279.
For COc1cccc(C(=O)Nc2cccnc2N(C)C)n1 the results were NPYLR7 ag -6 and NPYLR7 ag max-min -5.
`CCCc1c(C)nn(-c2ccc(C(=O)N[C@@H]3C[C@H]4CC[C@@H]3C4)cc2)c1C` gave NPYLR7 ag -10 and NPYLR7 ag max-min -12.
COc1ccc(CC(=O)NCc2nnnn2-c2ccc(F)cc2)cc1OC was read as NPYLR7 ag 8 and NPYLR7 ag max-min 6.
CN(C)C=Nc1cc(=O)n(C)c(=O)n1C was read as NPYLR7 ag 10 and NPYLR7 ag max-min 11.
COc1cccc(CN(CCN2CCOCC2)Cc2nc(C(=O)O)co2)c1OC was read as NPYLR7 ag 11 and NPYLR7 ag max-min 10.
For CCOC(=O)C(O)(c1ccc(N(CC)C(=O)c2cccs2)cc1)C(F)(F)F (stereo not drawn) the results were NPYLR7 ag -16 and NPYLR7 ag max-min -22.
`CCCCN(C(C)=O)c1c(CC)nc2ccc(C(=O)Nc3cccc(OCC(=O)N(C)C)c3)cn12` gave NPYLR7 ag 15 and NPYLR7 ag max-min 11.
For O=C(CSc1ccc2ccccc2c1)NC1CCS(=O)(=O)C1 (stereo not drawn) the results were NPYLR7 ag -7 and NPYLR7 ag max-min -6.
Screening COCCN(CC(=O)N(CCc1ccc(OC)c(OC)c1)Cc1sccc1C)C(=O)Nc1cccc(Br)c1 returned NPYLR7 ag 10 and NPYLR7 ag max-min 22.
`CCOC(=O)c1c(SCC(=O)c2ccc(C)cc2)nc(=O)[nH]c1C` gave NPYLR7 ag -7 and NPYLR7 ag max-min -5.
`COc1ccc(C(=O)Nn2cnc3c(cnn3-c3ccccc3)c2=O)cc1` gave NPYLR7 ag 2 and NPYLR7 ag max-min 0.
Screening CC(C)NC(=O)C1CCN(C2CCN(CC3CC=CCC3)CC2)CC1 (stereo not drawn) returned NPYLR7 ag 1 and NPYLR7 ag max-min 1.
For Cc1cc(=O)c(C(=O)N2CCC3(CCCN(CC(C)(C)C)C3=O)C2)c[nH]1 (stereo not drawn) the results were NPYLR7 ag 2 and NPYLR7 ag max-min -5.
CCOC(=O)[C@H]1C[C@]2(CCCCN(CCOC)C2=O)N(C(=O)C2CC2)[C@H]1c1ccccc1 was read as NPYLR7 ag 3 and NPYLR7 ag max-min 9.

Eleven neighbouring records out of the list so far:
`CCCc1c(C)nn(-c2ccc(C(=O)N[C@@H]3C[C@H]4CC[C@@H]3C4)cc2)c1C` gave NPYLR7 ag -10 and NPYLR7 ag max-min -12.
COc1ccc(CC(=O)NCc2nnnn2-c2ccc(F)cc2)cc1OC was read as NPYLR7 ag 8 and NPYLR7 ag max-min 6.
CN(C)C=Nc1cc(=O)n(C)c(=O)n1C was read as NPYLR7 ag 10 and NPYLR7 ag max-min 11.
COc1cccc(CN(CCN2CCOCC2)Cc2nc(C(=O)O)co2)c1OC was read as NPYLR7 ag 11 and NPYLR7 ag max-min 10.
For CCOC(=O)C(O)(c1ccc(N(CC)C(=O)c2cccs2)cc1)C(F)(F)F (stereo not drawn) the results were NPYLR7 ag -16 and NPYLR7 ag max-min -22.
`CCCCN(C(C)=O)c1c(CC)nc2ccc(C(=O)Nc3cccc(OCC(=O)N(C)C)c3)cn12` gave NPYLR7 ag 15 and NPYLR7 ag max-min 11.
For O=C(CSc1ccc2ccccc2c1)NC1CCS(=O)(=O)C1 (stereo not drawn) the results were NPYLR7 ag -7 and NPYLR7 ag max-min -6.
Screening COCCN(CC(=O)N(CCc1ccc(OC)c(OC)c1)Cc1sccc1C)C(=O)Nc1cccc(Br)c1 returned NPYLR7 ag 10 and NPYLR7 ag max-min 22.
`CCOC(=O)c1c(SCC(=O)c2ccc(C)cc2)nc(=O)[nH]c1C` gave NPYLR7 ag -7 and NPYLR7 ag max-min -5.
`COc1ccc(C(=O)Nn2cnc3c(cnn3-c3ccccc3)c2=O)cc1` gave NPYLR7 ag 2 and NPYLR7 ag max-min 0.
Screening CC(C)NC(=O)C1CCN(C2CCN(CC3CC=CCC3)CC2)CC1 (stereo not drawn) returned NPYLR7 ag 1 and NPYLR7 ag max-min 1.

Continued:
For CCOC(=O)N1CCC(NS(=O)(=O)NCc2ccccc2)CC1 the results were NPYLR7 ag 5 and NPYLR7 ag max-min 1.
CCN(CC1CCOC1)C(=O)/C(=C/c1ccccc1)n1nnnc1C (stereo not drawn) was read as NPYLR7 ag 2 and NPYLR7 ag max-min -1.
`O=C(Cc1ccc(Cl)c(Cl)c1)Nc1nc(N2CCCCC2)n[nH]1` gave NPYLR7 ag 3 and NPYLR7 ag max-min 2.
For Cc1cc(-n2cccn2)ccc1-c1nccn1Cc1ccoc1 the results were NPYLR7 ag -4 and NPYLR7 ag max-min -7.
For FC(F)(F)c1nnc2sc(Cc3cccc4ccccc34)nn12 the results were NPYLR7 ag -1 and NPYLR7 ag max-min -2.
`O=C(CC1C(=O)NCCN1C1CCCC1)NCC1CCN(Cc2ccccc2)CC1` (stereo not drawn) gave NPYLR7 ag 3 and NPYLR7 ag max-min 0.
For CCOc1ccccc1NC(=O)N(Cc1ccc(OS(C)(=O)=O)cc1)CC1CCCO1 (stereo not drawn) the results were NPYLR7 ag 22 and NPYLR7 ag max-min 19.
Screening COC(=O)C1CCN(C(=O)Cc2c(C)nc(SC(C)c3ccccc3)[nH]c2=O)CC1 (stereo not drawn) returned NPYLR7 ag -5 and NPYLR7 ag max-min -11.
CSC(C)(C)CNC(=O)NCCC1CCN(C)CC1 was read as NPYLR7 ag 8 and NPYLR7 ag max-min 323.
CC(C)COc1nc(-c2ccc(C(F)(F)F)cc2)n(-c2cccc(NC(=O)C(C)C)c2)n1 was read as NPYLR7 ag 2 and NPYLR7 ag max-min 3.
O=C1NCC2(CCCN(C(=O)c3cc4ccccc4s3)C2)O1 (stereo not drawn) was read as NPYLR7 ag 10 and NPYLR7 ag max-min 9.
For Cc1ccccc1CN(C)C(C)C(=O)NCc1cccs1 (stereo not drawn) the results were NPYLR7 ag 11 and NPYLR7 ag max-min 10.
For Cc1ccc(CSc2nc3c(c(=O)[nH]c(=O)n3C)n2Cc2ccccc2)cc1 the results were NPYLR7 ag 0 and NPYLR7 ag max-min -1.
`CC(C)(C)c1ccc(C(=O)Nc2ccc3nc(SCC(=O)NC4CCCCC4)sc3c2)cc1` gave NPYLR7 ag -4 and NPYLR7 ag max-min -9.
Cc1cc(CNC(=O)c2occc2C)c2[nH]c(C)c(C)c2c1 was read as NPYLR7 ag 4 and NPYLR7 ag max-min 1.
COc1ccc(OC)c(C2c3cccn3-c3ccccc3N2C(=O)CN(C(=O)Nc2ccc(Cl)cc2)C2CC2)c1 (stereo not drawn) was read as NPYLR7 ag 18 and NPYLR7 ag max-min 14.
Cc1ccc(C(=O)OCc2cc(=O)n3ccsc3n2)s1 was read as NPYLR7 ag -1 and NPYLR7 ag max-min 5.
CN(C)C1CCN(Cc2cc3n(n2)CCCNC3)C1 (stereo not drawn) was read as NPYLR7 ag -5 and NPYLR7 ag max-min -11.
Screening CCn1nnc2c(SCC(=O)N3CCC(Cc4ccccc4)CC3)ncnc21 returned NPYLR7 ag 0 and NPYLR7 ag max-min 6.
Screening O=C(CN1C(=O)C2C3C=CC(C3)C2C1=O)Nc1nnc(-c2ccco2)o1 (stereo not drawn) returned NPYLR7 ag 0 and NPYLR7 ag max-min 1.
CN1CCC2(CCCN(C(=O)COc3ccc4c(c3)OCO4)CC2)CC1 was read as NPYLR7 ag 1 and NPYLR7 ag max-min -2.
`COc1ccc(OCCNC(=O)c2cncn2-c2cccc(-c3ccccc3C(F)(F)F)c2)cc1` gave NPYLR7 ag 1 and NPYLR7 ag max-min 6.
CC(=O)C(C(=O)N(C)C)n1cnc2c(nnn2-c2cccc(F)c2)c1=O (stereo not drawn) was read as NPYLR7 ag -3 and NPYLR7 ag max-min -6.
`COc1ccccc1OC1CN(CC2CCC(N)CC2)C1` (stereo not drawn) gave NPYLR7 ag -1 and NPYLR7 ag max-min -5.
Screening CN1CCCNC(=O)C12CCN(C(=O)c1ccccc1C1CCNC1)CC2 (stereo not drawn) returned NPYLR7 ag 8 and NPYLR7 ag max-min 5.
Cc1ccc(N=Cc2nc(-c3ccc(Br)cc3)oc2O)cc1 was read as NPYLR7 ag -5 and NPYLR7 ag max-min -6.
Screening CCCC(=O)Nc1ccc(CC(=O)NCc2n[nH]c3c2CCC3)cc1 returned NPYLR7 ag 25 and NPYLR7 ag max-min 7.
Screening O=C(c1cnc(Nc2ccccc2)nc1)N1CCOC2(CNCCOC2)C1 (stereo not drawn) returned NPYLR7 ag 16 and NPYLR7 ag max-min 8.
For N#Cc1c(NC(=O)c2ccc(Br)s2)sc2c1CCC2 the results were NPYLR7 ag 4 and NPYLR7 ag max-min 3.
Screening COc1ccccc1-c1onc(C)c1C(=O)NCc1ccccn1 returned NPYLR7 ag -7 and NPYLR7 ag max-min -7.
CCn1c(C2CCCN(C(=O)c3cccc(Cn4cccn4)c3)C2)nn(C)c1=O (stereo not drawn) was read as NPYLR7 ag -3 and NPYLR7 ag max-min 0.
`O=C(Nc1ccc(Cl)cc1)c1ccc(N2CC3CC(C2)c2cccc(=O)n2C3)c(NC(=O)c2ccc(F)cc2)c1` (stereo not drawn) gave NPYLR7 ag -6 and NPYLR7 ag max-min -1.
For O=Cc1ccc(OC(=O)C2CCC(N3C(=O)C4CC=CCC4C3=O)CC2)cc1 (stereo not drawn) the results were NPYLR7 ag -6 and NPYLR7 ag max-min -16.
Screening CCSc1ccccc1C(=O)N1CCN(Cc2nc(C3CC3)cs2)CC1 returned NPYLR7 ag -11 and NPYLR7 ag max-min -18.
Screening Cc1ccccc1Cn1nc(-c2ccc3c(c2)OCO3)ccc1=O returned NPYLR7 ag 8 and NPYLR7 ag max-min 2.
For COc1ccccc1CCN1CCCC(CN(C)C(=O)Cc2sc(C)nc2C)C1 (stereo not drawn) the results were NPYLR7 ag 26 and NPYLR7 ag max-min 20.
Screening CSc1ccccc1C(=O)Nc1nn(C)c2c1C(c1cccs1)CC(=O)N2 (stereo not drawn) returned NPYLR7 ag -14 and NPYLR7 ag max-min -20.
`CC(=NOCC(=O)OCc1cc(=O)oc2cc(C)c(C)cc12)c1ccc2c(c1)OCO2` gave NPYLR7 ag -4 and NPYLR7 ag max-min -5.
`Cc1cc(C)n(C(=O)c2cnn(-c3ccccn3)c2C)n1` gave NPYLR7 ag 2 and NPYLR7 ag max-min 8.
CCOCCNC(=O)c1ccc(-c2ccc(Oc3ccccc3)cc2)s1 was read as NPYLR7 ag 25 and NPYLR7 ag max-min 23.
For O=C(NC1CC1)C(c1ccccc1)N1CCN(S(=O)(=O)c2ccc(F)c(F)c2)CC1 (stereo not drawn) the results were NPYLR7 ag -4 and NPYLR7 ag max-min -8.
